gsp agonist = agonists of gsp mutant (McCune-Albright syndrome). 0.13% of 340,000 active. AID 624287. Potency, µM (highest dose often 76.9 µM), for the others: at the top dose activation (cAMP increase), usual class: activators. gsp mutant cells, cAMP HTRF, 30 min; control for the full effect not named in the record; active = well fitted activation curve with a large enough effect; inconclusive = small, poorly fitted or top-dose-only effect, or another doubt; inactive = no such curve, though single readings can be large or run the other way; cell line not stated here;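 also: phosphodiesterase inhibitor Ro 20-1724 added with compounds to block cAMP breakdown; potency is read from the fitted curve at half-maximal effect; nearly all actives have a fitted effect of over 60% in size; about a fifth of the inactives were tested at one dose only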
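Cells stably selected in G418 were plated at 2000/well, grown 16-24 hr, then given compounds in DMSO with the PDE inhibitor […] (300 uM solution added) for 30 min at 37C; cAMP was read by HTRF.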
ClpP mod = qHTS Assay for Activators of ClpP; ATP-dependent Clp protease proteolytic subunit (Bacillus subtilis (strain 168)), P80244; purified B. subtilis ClpP, FRET peptide cleavage, 20 min; Potency, µM (titrated, usually from 57.5 µM), for the others: top-dose activity change, negative = active; 1.9% of 340,000 active; active = well fitted falling curve with a large enough effect; inconclusive = small, poorly fitted or top-dose-only effect; inactive = no such curve, though single readings can be large or run the other way; also: potency is read from the fitted curve at half-maximal effect; the source files actives as falling curves though it sought activators and does not explain the sign; nearly all actives have a fitted effect of over 65% in size; many hits overshoot -100%
Target sequence (P80244 whole entry, looked up): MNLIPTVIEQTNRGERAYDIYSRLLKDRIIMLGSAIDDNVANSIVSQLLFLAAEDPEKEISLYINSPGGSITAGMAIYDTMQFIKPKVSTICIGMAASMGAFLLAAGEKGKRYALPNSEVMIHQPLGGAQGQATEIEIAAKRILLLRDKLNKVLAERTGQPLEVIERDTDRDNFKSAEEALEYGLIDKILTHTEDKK
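ClpP 10 microg/mL final, pH 8 Tris/KCl buffer with BSA, glycerol, Tween-20; compound pinned in; FRET-FV substrate; RT 20 min; Ex320/Em430; ΔFRET vs ADEP 5.8 microM, DMSO, no enzyme.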
gsp antagonist = gsp mutant antagonism; gsp-mutant cells, cAMP HTRF, 30 min; control for the full effect not named in the record; Potency, µM (highest dose often 76.9 µM), inactives show top-dose activity change, negative = inhibition, most hits filed as inhibitors; 0.4% of 340,000 active; AID 624288; active = falling curve of any shape with a large fitted effect; inconclusive = falling curve, mostly with a smaller effect; inactive = flat or rising curve; cell line not stated here;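 also: intracellular cAMP measured with PDE inhibitor Ro 20-1724 present during compound exposure; potency is read from the fitted curve at half-maximal effect; % is scaled to controls: 0 for no effect and ±100 for the full control effect; nearly all actives have a fitted effect of over 65% in size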
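Cells, 2000/well, grown 16–24 h in DMEM 10% FBS with 0.5 mg/ml G418, then compounds plus […] (300 uM addition stock), 30 min at 37C. cAMP read by HTRF (cAMP-d2 and anti-cAMP antibody-K in lysis buffer) after 30 min RT.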
TRPML1 agonist = human mucolipin-1 channel agonism | TRPML1-expressing cells, Ca2+ dye fluorescence, FDSS; host cell line not named in the record; reference of the full effect not given here | activation, % (no concentration beside the values) | Q9GZU1 | 0.12% of 410,000 active; in the data active = activation above about 50%; inconclusive = about 30% to 50%; inactive = below about 30%; also: 0% is about no effect; the text of the record puts the active cut at 80%
Target sequence (Q9GZU1 whole entry, looked up): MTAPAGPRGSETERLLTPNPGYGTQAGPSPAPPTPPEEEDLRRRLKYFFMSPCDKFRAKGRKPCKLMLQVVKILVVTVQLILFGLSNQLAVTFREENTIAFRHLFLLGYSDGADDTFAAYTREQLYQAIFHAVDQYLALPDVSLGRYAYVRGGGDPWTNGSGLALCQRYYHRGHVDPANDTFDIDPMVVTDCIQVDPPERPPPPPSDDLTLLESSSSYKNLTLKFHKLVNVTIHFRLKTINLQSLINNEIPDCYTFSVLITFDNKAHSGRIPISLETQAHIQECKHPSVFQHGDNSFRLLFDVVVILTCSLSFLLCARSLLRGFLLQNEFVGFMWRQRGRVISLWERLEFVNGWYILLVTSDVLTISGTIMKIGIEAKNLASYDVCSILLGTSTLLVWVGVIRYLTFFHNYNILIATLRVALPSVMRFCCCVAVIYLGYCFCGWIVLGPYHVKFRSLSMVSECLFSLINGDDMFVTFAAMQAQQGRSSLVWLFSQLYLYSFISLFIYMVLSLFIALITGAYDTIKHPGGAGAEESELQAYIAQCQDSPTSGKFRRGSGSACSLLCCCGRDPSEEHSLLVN
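Kinetic FDSS Ca2+ read in Tet-induced TRPML1-DL cells (ABD Ca8 dye plus quencher, 45-90 min RT loading): baseline, then compound, then 110 s agonist window; EC80 agonist 54-4 at 4uM final added afterwards for a 110 s antagonist window.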
Menin MLL FP FL = displaces fluorescein MLL peptide from human menin. Fluorescence polarization, fluorescein-MLL peptide displacement from menin. AID 1766. FP activity change, % at 61.4 µM. 290,000 tested, under 10 active; inconclusive = falling polarisation curve, or a change in total fluorescence; inactive = total fluorescence flat and polarisation flat or rising; no compound was filed as active; the % refers to the polarisation; negative = inhibition;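 also: % of control where 0% means no effect; inhibitors lower the polarisation; unlabelled MLL peptide was the positive control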
TRPML1 inh = blocks the human TRPML1 channel. Q9GZU1. TRPML1-inducible cells, Ca2+ dye fluorescence, FDSS; active compounds read low; inhibition of EC80 agonist-evoked calcium signal. activity change, negative = inhibition, % (concentration not given with the values). 0.02% of 390,000 active; in the data active means activity change below about -50%; inconclusive means about -30% to -50%; inactive means above about -30%;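 also: stimulus is agonist 54-4 at its EC80 concentration; % is scaled to controls: 0 for no effect and ±100 for the full control effect; the text of the record puts the active cut at -80%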
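Calcium fluorescence in TRPML1-DL cells induced overnight with Tet: a 110 s read after compound pin addition, then a 110 s antagonist read after challenge with 54-4 at 4 uM final (EC80).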
The depositor's hits bear a star; ? = inconclusive; nt = not tested or not shown; & = joins results of further samples; [ ] = another dose, or the depositor's remark.

SMILES,gsp agonist,ClpP mod,gsp antagonist,TRPML1 agonist,Menin MLL FP FL,TRPML1 inh
CCc1ccc(N2CC(C(=O)Nc3ccccc3N3CCCC3)CC2=O)cc1 (stereo not drawn),-34%[inhibitor],-0.3%,nt,-0.5,nt,-8
CCn1cc(/C=C/C(=O)Nc2ccn(Cc3c(F)c(F)cc(F)c3F)n2)cn1,3%,-1.0%,3%,0.2,0.3,-4
CCOc1ccc(OCCC(=O)N(CC)CC(=O)NCc2cccs2)cc1,-1%,0.1%,5%,-0.5,nt,-9
NC(=O)C1=C[C@H](c2ccc(Br)cc2)C[C@H](OCc2ccc(CO)cc2)O1,nt,1.0%,9%,-0.4,2.9,45
COc1cc(/C=N/NC(=O)c2ccncc2)ccc1OC(=O)c1cc(OC)c(OC)c(OC)c1,-13%,nt,-3%,1.2,2.4,2
Cc1cccc(CC(=O)NC2CC(=O)N(c3ccccc3)C2)c1 (stereo not drawn),nt,0.1%,nt,0.7,nt,-11
CC1CCN(c2ccc3c(c2)S(=O)(=O)c2cccc(C(=O)O)c2C3=O)CC1,25%,2.4%,6%,3.5,nt,6
CC1(C)CC(N2CCOCC2)=CC(=[N+]2CCOCC2)C1,13%[15.4 µM],nt,nt,0.1,-3.0,-10
Cc1ccc(N(CCCCN2C(=O)c3ccccc3C2=O)C(=O)c2cccc([N+](=O)[O-])c2)cc1,-14%,-2.7%,-19%,2.0,0.1,1
CCOC(=O)CC1C(=O)NCCN1S(=O)(=O)c1ccc(NC(C)=O)cc1 (stereo not drawn),-63%[inhibitor],-2.4%,-6%,0.4,0.4,-2
O=C(c1cc2c(s1)CCCC2)N1CCN(C(=O)C2CCCO2)CC1 (stereo not drawn),-19%,-2.7%,-8%,0.4,1.6,-17
Cc1cccc(NC(=O)CSc2nc3c(c(=O)[nH]2)CCC3)c1C,9%,4.2%,1%,2.4,-3.0,-12
O=S(=O)(Nc1ccc(-c2cn3c(n2)SCC3)cc1)c1ccccc1F,-27%,-3.1%,-19%,0.4,nt,11
CC(C)(C)c1ccc(-n2ncc3c2CCCC3NC(=O)c2ccncc2)cc1 (stereo not drawn),-31%,1.2%,2%,-0.4,nt,38
C=CCn1c(SCc2csc(C)n2)nc2scc(-c3ccc(C)o3)c2c1=O,7%,8.5%,-9%,1.0,2.9,-17
COc1cc(C(=O)CCN2CCC(c3ccccc3)C2)cc(OC)c1OC (stereo not drawn),11%,0.6%,13%,0.1,2.4,43
CCOc1ccccc1C(C(=O)NCCOC)N(CCOC)C(=O)Cn1nnc2ccccc21 (stereo not drawn),-2%[15.4 µM],nt,-3%,-0.5,-0.3,-6
CCOc1ccc(-n2c(COc3ccccc3)nnc2SCC(N)=O)cc1,-18%,0.5%,3%,0.2,-2.2,-4
Cc1cc(OCCN2CCC(Cc3ccccc3)CC2)ccc1[N+](=O)[O-],-16%,nt,6%,0.2,0.7,5
CC(C)NC(=O)CCNS(=O)(=O)c1ccc(Br)cc1,-3%,0.5%,2%,0.6,3.7,-28
COc1ccc(CNC(=O)CSc2nnc(C(F)(F)F)n2C)cc1,-14%[15.4 µM],nt,nt,-0.6,-1.1,1
CN1CCCN(C(=O)c2ccccc2Cl)CC1,-22%,nt,9%,0.1,0.9,5
Cc1cc(C(=O)OCC(=O)N2CC(=O)Nc3ccccc32)no1,2%,-1.7%,13%,1.8,2.8,3
CN(C)S(=O)(=O)c1cccc(NC(=O)COc2nc3ccccc3nc2N2CCOCC2)c1,-10%,-3.8%,-18%,0.0,7.6,0
CC(=O)N1CCc2c(sc3c2c(=O)n(CCc2ccccc2)c(=O)n3CC(=O)Nc2ccc(C)c(F)c2)C1,nt,-0.6%,nt,-0.2,nt,6
COc1ccc(CO/N=C/c2c(C)[nH]c(=O)[nH]c2=O)cc1,8%,-1.1%,3%,0.3,-0.4,21
COc1ccc(S(=O)(=O)n2nc(OCc3cccs3)cc2N)cc1,-5%,-3.8%,1%,0.1,-0.9,-23
Cc1ccc2[nH]c3c(=O)n(CC(=O)N(CCN(C)C)Cc4ccccc4)ncc3c2c1,nt,4.0%,nt,3.2,nt,8
CCc1ccc(N2C(=O)CN(CC(=O)OC)C2=S)cc1,-31%[inhibitor],nt,1%,-0.7,-0.1,-8
CCOC(=O)c1ccc(OC(=O)c2cn(-c3ccc(C)cc3)c(=O)c3ccccc23)cc1,nt,-21%,nt,1.4,nt,-2
O=C(Nc1ccc(F)cc1)c1ccccc1Oc1ccc(C(F)(F)F)cc1[N+](=O)[O-],2%,-0.9%,?,14,-0.4,14
COc1ccc(N(Cc2cc3cc(C)ccc3[nH]c2=O)C(C)=O)cc1,-5%,-27%,1%,-1.0,-1.2,-22
O=C(Cc1n[nH]c(=O)c2ccccc12)Nc1cc(Cl)ccc1-n1cncn1,-29%[15.4 µM],nt,8%,-0.7,nt,3
O=C(Nc1ccncc1)c1cc(-c2ccccn2)nc2ccc(Br)cc12,64%[15.4 µM],0.6%,-11%,-0.4,-2.5,-19
Cc1csc(=N)n1CC(=O)N1CCc2ccccc21,11%,-0.8%,7%,-0.4,1.5,5
CCCCCCC1CCC(C(=O)Nn2c(C)nc3ccccc3c2=O)CC1 (stereo not drawn),-1%,-2.0%,3%,0.1,-1.8,-5
Cn1c(C(=O)N2CCCC(C(=O)NCCCc3ccccc3)C2)cc2sccc21 (stereo not drawn),-18%,-2.2%,?,2.1,3.1,17
CCCOc1ccccc1-c1nc2c([nH]1)c(=O)[nH]c(=O)n2C,30%,32µM*,15%,-0.7,3.1,1
Cc1ccc(S(=O)(=O)N2CCN(C(=O)COc3ccc(-c4nnco4)cc3)CC2)cc1,-47%[inhibitor],-3.0%,-11%,2.2,-2.5,-8
Cc1ccc(N/C=C/C(=O)c2cccs2)cc1,-6%,0.7%,3%,1.1,12,3
COc1cc(OC)c(-c2nc3ccccc3s2)cc1OC,-23%,4.8%,-10%,3.0,-6.7,-1
COc1ccc(NC(=O)COc2ccc(/C=N/n3c(C)nnc3C)cc2OC)cc1,0%,-23%,-15%,-1.6,-3.5,-6
O=C(CSc1nnc(NC(=O)C2CC2)s1)Nc1ccccc1Cl,1%[15.4 µM],nt,-18%,-0.4,nt,2
Cc1ccc(S[C@@H](CCN2CC[C@H](NC(=O)OCc3ccccc3)CCC2=O)c2ccccc2)cc1,-24%,-4.3%&5.6%,-20%,1.4&-0.6,0.1,2
COc1ccc(C2c3c(n(C)c4ccccc34)C(=O)N2CC(=O)Nc2ccccc2F)cc1 (stereo not drawn),nt,-29%,nt,1.3,nt,-7
OC(COc1ccc2cc(Br)ccc2c1)CN1CCCC1 (stereo not drawn),43%,0.9%,18%,0.1,5.1,-1
CCOC(=O)c1cn(CC)c2cc(N3CCOCC3)c(F)cc2c1=O,-6%,32µM*,-3%,-0.3,2.1,-8
CCCCc1c(O)nc(SCC(=O)O)[nH]c1=O,1%[15.4 µM],nt,-2%,-0.3,4.5,11
O=c1c2ccccc2[nH]c(=S)n1CC1CCCO1 (stereo not drawn),-29%,-0.6%,-7%[15.4 µM],0.5,nt,-7
CCCn1c2c(c(O)c(C(=O)Nc3ncccc3C)c1=O)CCCC2,10%,-1.5%,-19%,4.1,3.1,-5
Cc1onc(-c2ccccc2)c1C(=O)n1cc(Br)cn1,-16%,-0.9%,-7%,0.8,0.7,1
O=C(CCNS(=O)(=O)c1cccc2nsnc12)Nc1ccc(F)cc1,nt,0.7%,nt,-0.4,nt,11
COc1cc(NS(=O)(=O)c2ccc(NC(=S)NC(=O)/C=C/c3ccc(OC)c(OC)c3)cc2)ncn1,-9%[15.4 µM],nt,-17%,-0.5,5.0,-25
N/C(=N\OS(=O)(=O)c1ccccc1)c1cccnc1,-33%[inhibitor],-2.2%,12%,-0.6,0.8,-4
CC(C)C(=O)c1cn(CC(=O)N2CCCc3ccccc32)c2ccccc12,-24%,-2.4%,-10%,2.0,-1.8,26
Cn1c(=O)n(C)c2cc(N3CCCC3)c(NC(=O)c3cccc(F)c3)cc21,-16%,-4.7%,?,-1.0,9.8,5
c1ccc2c(c1)OCC(c1csc3ncnc(N4CCCCC4)c13)O2 (stereo not drawn),-12%,-1.3%,-18%,-0.5,5.6,-16
O=C(NC1CCc2ccccc21)C1CCN(S(=O)(=O)c2ccc(Cl)cc2)CC1 (stereo not drawn),23%,6.2%,?,0.4,1.3,-15
CCOc1cc(NC(=O)c2cccs2)c(OCC)cc1NC(=O)c1cccnc1,2%,-20%,-9%,0.4,-0.8,0
COc1ccc(C(=O)OCC(=O)N(C)C2CCS(=O)(=O)C2)cc1S(=O)(=O)N1CCCc2ccccc21 (stereo not drawn),-5%[15.4 µM],nt,-32%,-0.2,-1.8,2

Single records (already shown). Values in the order: gsp agonist	ClpP mod	gsp antagonist	TRPML1 agonist	Menin MLL FP FL	TRPML1 inh
O=C(CCNS(=O)(=O)c1cccc2nsnc12)Nc1ccc(F)cc1 is entered as nt	0.7%	nt	-0.4	nt	11
Cn1c(=O)n(C)c2cc(N3CCCC3)c(NC(=O)c3cccc(F)c3)cc21 is entered as -16%	-4.7%	?	-1.0	9.8	5
CC(C)C(=O)c1cn(CC(=O)N2CCCc3ccccc32)c2ccccc12 is entered as -24%	-2.4%	-10%	2.0	-1.8	26
CCCn1c2c(c(O)c(C(=O)Nc3ncccc3C)c1=O)CCCC2 is entered as 10%	-1.5%	-19%	4.1	3.1	-5
Cc1onc(-c2ccccc2)c1C(=O)n1cc(Br)cn1 is entered as -16%	-0.9%	-7%	0.8	0.7	1

Carrying on:
SMILES,gsp agonist,ClpP mod,gsp antagonist,TRPML1 agonist,Menin MLL FP FL,TRPML1 inh
COc1cccc(-c2nc(CS(=O)(=O)CC(=O)Nc3cccc(C)c3C)c(C)o2)c1,0%,-4.5%,-3%,1.0,4.8,2
CC(C)(CSc1ncccn1)NS(=O)(=O)c1ccccc1,-10%,nt,10%,1.0,-1.7,14
COCCNC(=O)CN1C(=O)NC2(CCOc3ccccc32)C1=O (stereo not drawn),-46%[inhibitor],nt,-1%,0.2,1.0,2
Cc1c(Cl)cnc(NC(=O)COC(=O)c2nn(C)c(=O)c3ccccc23)c1Cl,-68%[inhibitor],-4.8%,-13%,1.0,-1.5,14

High-throughput results: PubChem, National Center for Advancing Translational Sciences (NCATS)
